High-throughput results from PubChem.
CDC25B CDK2 inh: human CDC25B-CDK2/CyclinA binding inhibition; P30305+P24941; HTRF CDC25B-CDK2/CyclinA binding, anti-His/anti-Flag; hits give high values; z-score (concentration not given with the values); 0.72% of 94,000 active;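 also: score is relative to mean and SD of negative controls; strong numbers were not always called active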
TAR Tat displ: HIV-1 TAR-Tat binding disruption; z-score (no concentration beside the values); AID 1259389; 0.6% of 100,000 active; HIV-1 TAR RNA, Tat peptide displacement FRET; hits give high values;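 also: score is relative to mean and SD of negative controls; some compounds called inactive have numbers as strong as hits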
Starred values were filed as active, the others as inactive; . = not tested or not shown.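 The calls were made as follows: active = z-score from 3 up in half or more of its runs; inactive = the rest.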

Order of results – CDC25B CDK2 inh, TAR Tat displ
- Cc1ccc(NC(c2ccccc2)c2nnc(-c3ccccc3)o2)cc1 (stereo unspecified)
 : -1.1, 3
- COc1ccc(N2CCN(CCNc3nn4nnnc4c4ccccc34)CC2)cc1
 : ., 0.88
- CSc1nc(C2CC2)cc(-c2cccs2)c1C#N
 : -3.9, .
- N#Cc1nc(/C=C/c2ccc(F)cc2)oc1N1CCN(C(=O)c2ccc(F)cc2)CC1
 : -0.57, -0.09
- Cc1c(C(=O)C(=O)N(C)C)c2ccccc2n1C
 : -1.7, .
- COc1cccc(CNc2nc3ccccc3n3cnnc23)c1
 : -0.21, 0.96
- OC(C#CCN1CCCCC1)(c1ccccc1)c1ccccc1
 : -0.71, 1.8
- O=C(Cn1ncc2c([nH]c3ccccc32)c1=O)N1CCN(C2CCCCC2)CC1
 : ., 1.6
- O=C(NCc1cccn1Cc1ccc(Cl)cc1)NCC1CCCO1 (stereo unspecified)
 : ., 0.65
- CC12CC(NC(=S)N1c1ccc(Br)cc1)c1ccccc1O2 (stereo unspecified)
 : 0.58, .
- CC1CCCN(c2ncnc3c2nc2n3CCCCC2)C1 (stereo unspecified)
 : ., 0.82
- Cn1c(=O)c(=O)n(C)c2cc(N3CCCC3)c(NC(=O)CN3CCCC3)cc21
 : -1.2, -3
- CC1(C)Cc2ccccc2C(CSc2ccccc2C(=O)O)=N1
 : -2.3, -1.4
- c1ccc(CCCNc2ccc3nncn3n2)cc1
 : 0.53, 0.93
- O=C1C=CC(=O)N1Cc1ccc(Cl)c(Cl)c1
 : -1.9, .
- O=C1COc2ccc(-c3cc(-c4ccc(F)cc4)c4c(n3)-c3ccccc3OC4)cc2N1
 : 0.31, -0.41
- CCCc1nc(SCc2cc(=O)n3c(C)csc3n2)n[nH]1
 : ., 0.13
- Cc1cccn2c(=O)c(C(=O)NCCOCCO)c(O)nc12
 : -1.4, -0.57
- COc1ccc(-c2nnc(SCCOc3ccccc3Cl)o2)cc1OC
 : -1.7, 1.1
- N#C/C(=C\Nc1ccc(OC(F)(F)F)cc1)C(=O)c1cccs1
 : -1.6, .
- Cc1[nH]c2[nH]n(-c3ccccc3)c(=O)c2c(=O)c1Cc1cccc(Cl)c1
 : -7.7, -2.8
- O=C1N(Cc2cc(=O)n3ccccc3n2)c2ccccc2S(=O)(=O)N1c1ccc(F)cc1
 : ., -0.77
- COc1ccc(N2CC(O)=C(c3nc4ccccc4s3)C2=N)cc1Cl
 : -0.52, 2.5
- COc1ccc(-c2nnc(SCc3cc(=O)n4ccsc4n3)o2)cc1
 : -1.6, 0.95
- CCOC(=O)CCCCC(=O)c1[nH]c(=O)[nH]c1C[n+]1ccc(C)cc1
 : -0.88, .
- Cc1cccc(NC2=NC(C)(C)N=C(N)N2)c1C
 : -0.03, .
- O=C(CN1C(=O)CCSc2ccccc21)NCCN1CCOCC1
 : -1.2, 0.42
- CCCCCCn1c(=O)[nH]c2c(c1=O)CCC2
 : -0.03, .
- O=C(OCc1cc(=O)n2c3c(sc2n1)CCCC3)c1ccc2c(c1)OCO2
 : ., 0.01
- CCN(c1ccccc1)S(=O)(=O)c1ccc(-c2cnc(C)o2)cc1
 : ., 1.4

Next section.
Order of results – CDC25B CDK2 inh, TAR Tat displ
- Cc1ccc(-c2nnc(Nc3cccc(O)c3)c3ccccc23)cc1S(=O)(=O)NCC1CCCO1 (stereo unspecified)
 : -0.56, 1.1
- Cc1ccc(C)c(S(=O)(=O)n2nc(C)c(S(=O)(=O)N3CCCC(C)C3)c2C)c1 (stereo unspecified)
 : ., 0.9
- O=C1CC(c2ccc(F)cc2)C2=C(CC(c3cccs3)CC2=O)N1 (stereo unspecified)
 : 4, .
- Cn1c(=O)[nH]c(=O)c2c1nc(NCc1ccco1)n2CC(O)COc1ccccc1 (stereo unspecified)
 : -1.6, -0.12
- O=C(Nc1noc2ccccc12)c1cc2c(s1)CCCC2
 : -7.3, 0.53
- COCCCNC(=O)Cn1nc(C)n2c(cc3occc32)c1=O
 : -0.38, 2
- Cc1nnc(SCc2cn3ccccc3n2)c2cc3occc3n12
 : ., 0.24
- CCCN1C(=O)C(O)(CC(=O)c2c(C)n[nH]c2C)c2cc(Br)ccc21 (stereo unspecified)
 : -2.3, 1.2
- O=C1CCCN2N=C(SCC(=O)N3CCCc4ccccc43)SC2=N1
 : -1.4, .
- O=C(Nc1cc(F)ccc1F)c1cc2c(s1)-c1ccccc1S(=O)(=O)C2
 : 1.8, 1.3
- O=C(CN1C=NS(=O)(=O)c2ccccc21)N1CCCC1
 : ., 1.8
- CCc1nc(SCC(=O)c2ccc(OC)c(Br)c2)n[nH]1
 : -2.3, 1
- O=C(Nc1ccc(S(=O)(=O)Nc2nccs2)cc1)c1cc(=O)c2ccccc2o1
 : -0.26, 1.1
- COc1nc(Nc2ccc(-c3nc4ccccc4o3)cc2)nc(N2CCOCC2)n1
 : -1.9, .
- CC12CC3CC(C)(C1)CC(Nc1nc(N4CCOCC4)nc4ccccc14)(C3)C2
 : -0.24, .
- Cc1nc2ccccc2c2c1C(=O)N(c1ccc(C(=O)OCC(=O)c3ccccc3)cc1)C2=O
 : -1.8, 1.2
- O=C(Nc1ccc2c(c1)OCO2)[C@H](Cc1ccccc1)N1Cc2ccccc2C1=O
 : -0.04, 0.12
- O=C(OCCN1CCCCC1)C1COc2ccccc2O1 (stereo unspecified)
 : -2.8, 0.97
- CCC(=O)Nc1nnc(S(=O)(=O)N2c3ccccc3CC2C)s1 (stereo unspecified)
 : -1.6, 1.2
- COC(=O)C1=C(C)Nc2nc(SCC(C)C)[nH]c(=O)c2C1c1ccc(C(=O)OC)cc1 (stereo unspecified)
 : 0.79, 0.45
- Cc1cccc(-c2noc(CNS(=O)(=O)c3ccccc3)n2)c1
 : -1.1, 0.37
- Cc1cccc(NC(=O)c2ccco2)n1
 : 0.46, .
- O=C(OCc1ccco1)c1ccc(-c2ccc(Cl)cc2)s1
 : -1.9, .
- Cc1ccc(CNCCSc2nnnn2-c2ccccc2)s1
 : -0.6, 1.7
- O=C(Cn1c(SCc2cccc(F)c2)nc2ccncc21)NCC1CCCO1 (stereo unspecified)
 : -2, 0.97
- CCCCNC(=O)C1Cc2cc(S(=O)(=O)N3CCOCC3)ccc2N1C(C)=O (stereo unspecified)
 : ., 1.3
- NS(=O)(=O)c1ccc(CCNCc2ccc(-c3ccccc3)o2)cc1
 : ., 0.95
- O=c1c(-c2ccc(Cl)cc2)c(C(F)(F)F)oc2c(CN3CCOCC3)c(O)ccc12
 : -0.05, 2.6
- CC(C)c1ccc(C(=O)CSc2n[nH]c(-c3ccncc3)n2)cc1
 : 1.8, 1.8
- CCn1nc(CC(=O)O)c2ccccc2c1=O
 : -1, 1.7

Full records, looked up by structure. Order of values: CDC25B CDK2 inh	TAR Tat displ
Shown for `O=C(OCc1ccco1)c1ccc(-c2ccc(Cl)cc2)s1` = -1.9	.
Shown for `CCc1nc(SCC(=O)c2ccc(OC)c(Br)c2)n[nH]1` = -2.3	1
Shown for `NS(=O)(=O)c1ccc(CCNCc2ccc(-c3ccccc3)o2)cc1` = .	0.95

(listing goes on)
Order of results – CDC25B CDK2 inh, TAR Tat displ
- CC(=O)N1c2ccccc2NC2=C(C(=O)CC(C)(C)C2)C1c1c(F)cccc1Cl (stereo unspecified)
 : -1.4, -0.46
- Cc1nc(-c2ccc(C)c(N3CCN(C(=O)Nc4ccc(Br)cc4)CC3)c2)no1
 : ., 1.6
- COc1ccc(/C=N/N2CCOCC2)cc1COc1ccc([N+](=O)[O-])c(C)c1
 : 1, .
- O=C(NCc1ccc2c(c1)OCO2)NC1(C(F)(F)F)Oc2ccccc2O1
 : -0.1, .
- C=CCSc1ncc(Cl)c(C(=O)Nc2ccc(S(=O)(=O)N3CCCCC3)cc2)n1
 : -0.65, 0.22
- CCS(=O)(=O)N1CCCc2ccc(NS(=O)(=O)c3ccc(F)c(Cl)c3)cc21
 : ., -0.36
- CCCN1C(SCC(=O)NC(C)C)=NS(=O)(=O)c2ccccc21
 : ., -0.01
- Cc1ncc(-c2ccc(C)c(S(=O)(=O)NCc3cccnc3)c2)o1
 : ., 0.88
- FC(F)(F)c1cc(-c2ccco2)nc2c(-c3ccc(Cl)cc3)cnn12
 : -1.6, 1.8
- Cc1n[nH]c(C)c1Sc1n[nH]c(=O)[nH]c1=O
 : -1.3, 0.79
- Cc1cc(C)nc(NC(=O)CCSCCc2ccccn2)n1
 : ., 2.2
- COc1ccc(Nc2nc3ccccc3n3nnnc23)cc1Cl
 : -1.4, -1.9
- CC(C)N(C)C1CCN(S(=O)(=O)c2csc(C(N)=O)c2)CC1
 : ., 1
- Cc1nc2c(-c3ccccc3)noc2c(=O)[nH]1
 : -1.2, -0.32
- CCOc1ccc(C2=NC(c3cccs3)=Nc3ccc(OC)cc3N2)cc1
 : -0.18, -0.08
- O=C(NCCN1CCCc2ccccc21)Nc1cccc2c1CCCC2
 : -0.45, 1.5
- CC(C)Oc1ccc(/C=N/NC(=O)c2cccs2)cc1
 : 0.48, .
- C/C(=N\NC(=O)c1cccnc1)c1cccnc1
 : -1.6, .
- CC1(C)Cc2ccccc2-c2[nH]c(=O)n(-c3ccc(Cl)cc3)c(=O)c21
 : -2.7, 2.9
- COc1ccc(OC)c(C2C=C(Nc3ccccc3)C(=O)N2c2ccccc2)c1 (stereo unspecified)
 : 0.17, 1.7
- COc1cc2c(cc1OC)C(COc1ccc3c(C)cc(=O)oc3c1)N(C(=O)c1cccs1)CC2 (stereo unspecified)
 : -0.61, .
- O=S(=O)(c1ccc2nc(NCC3CCCO3)ccc2c1)N1CCCCC1 (stereo unspecified)
 : ., 2.4
- CC(=O)Nc1nonc1-c1nnc(SCc2cccc(Br)c2)n1C
 : 0.3, 0.35
- Cn1c(=O)c2c(nc(N3CCOCC3)n2CCSc2nnnn2-c2ccccc2)n(C)c1=O
 : 1.2, .
- CCC1Sc2ccc(S(=O)(=O)CCC(=O)Nc3ccc(F)cc3Cl)cc2NC1=O (stereo unspecified)
 : ., -0.25
- COC(=O)c1cc(C)nc2c1c(=O)nc(SCc1nc(-c3ccc(OC)cc3)oc1C)n2C1CC1
 : ., -2
- O=c1cc(COc2ccccc2Cl)nc2sc3c(n12)CCCC3
 : 0.83, 1
- Cc1ccc(-c2nc(-c3ccccc3)no2)cc1
 : -0.8, -0.57
- Cc1ccc(CSCCNC(=O)CSCc2ccc([N+](=O)[O-])cc2)cc1
 : 1.1, .
- COc1ccc(CN2CSC3=C(C#N)C(c4cccs4)CC(=O)N3C2)cc1 (stereo unspecified)
 : 4*, -0.08

Next part.
Order of results – CDC25B CDK2 inh, TAR Tat displ
- COc1ccc(OCc2cn3c(C)cc(C)nc3n2)cc1
 : ., -0.08
- CCOC(=O)c1cnn(C(=O)c2c(C)nc3ccccn23)c1N
 : -1.3, .
- Cc1c(OCc2ccc(C(=O)O)o2)ccc2c3c(c(=O)oc12)CCCC3
 : -0.88, .
- CC(=O)N1c2ccc(S(=O)(=O)N3CCCC(C(=O)NC4CCCC(C)C4C)C3)cc2CC1C (stereo unspecified)
 : ., 0.41
- CCc1c(O)nc2sc3cc(OC)ccc3n2c1=O
 : -3, .
- CCOc1ccc(-n2nnc3c(sc4nc(C)cc(C)c43)c2=O)cc1
 : -0.58, 0.71
- CCN1CCN(c2nnc(-n3cccc3CNc3cc(Cl)ccc3OC)s2)CC1
 : ., 0.88
- COc1cc(NS(=O)(=O)c2cc(-c3cnc(C)o3)ccc2C)cc(OC)c1
 : ., 1.6
- C=CCCCCCCCCCCCC(O)CC(O)CO (stereo unspecified) (tested in a mixture with another compound)
 : ., -0.38
- COCc1cc(C)nc2sc3c(=O)n(-c4ccccc4Cl)nnc3c12
 : -1.1, 1.2
- COc1ccc(OC)c(Nc2nc(N3CCCC3)nc(N)c2[N+](=O)[O-])c1
 : ., 1.9
- O=C(C1CC1)N1CCCc2cc(NS(=O)(=O)c3ccc(Cl)cc3)ccc21
 : ., 0.44
- Cn1c(C(=O)N2CCCC(C(=O)NCc3ccccc3)C2)cc2sccc21 (stereo unspecified)
 : -1.5, .
- O=C(CSc1nc(-c2ccccc2F)nc2cc(=O)[nH]n12)Nc1ccccc1
 : ., 1.4
- Cn1c(=O)c(-c2noc(CCC(=O)O)n2)nn(-c2ccc(F)cc2)c1=O
 : -0.92, -0.79
- Cc1ccc(-c2nc(C(N)=O)c3[nH]c(=O)n(-c4ccc(C)c(C)c4)c3n2)c(C)c1
 : ., -4.3
- O=C(Cn1ncc2c1-c1ccccc1OC2)N1CCN(c2ccc(F)cc2)CC1
 : -1.1, -0.12
- Cc1cc(=O)n2nc(N3CCCC3C(=O)N3CCC(C)CC3)sc2n1 (stereo unspecified)
 : -0.73, 0.48
- O=C1CC(c2ccc3c(c2)OCO3)c2scc(-c3ccc(Cl)cc3)c2N1 (stereo unspecified)
 : ., 1.5
- N#Cc1c(Cl)cccc1Oc1ccc(-c2ccnc(N)n2)cc1
 : -0.82, .
- CN1C(C(=O)NCc2cccs2)=CC(c2cccs2)=NS1(=O)=O
 : -1.9, 1.4

Ordered by count of non-hydrogen atoms (descending): part of the list above.
Order of results – CDC25B CDK2 inh, TAR Tat displ
- Cc1ccc(-c2nnc(Nc3cccc(O)c3)c3ccccc23)cc1S(=O)(=O)NCC1CCCO1 (stereo unspecified)
 : -0.56, 1.1
- CC(=O)N1c2ccc(S(=O)(=O)N3CCCC(C(=O)NC4CCCC(C)C4C)C3)cc2CC1C (stereo unspecified)
 : ., 0.41
- COc1ccc(OC)c(C2C=C(Nc3ccccc3)C(=O)N2c2ccccc2)c1 (stereo unspecified)
 : 0.17, 1.7
- O=C(NCCN1CCCc2ccccc21)Nc1cccc2c1CCCC2
 : -0.45, 1.5
- Cc1cc(=O)n2nc(N3CCCC3C(=O)N3CCC(C)CC3)sc2n1 (stereo unspecified)
 : -0.73, 0.48
- O=C(NCc1cccn1Cc1ccc(Cl)cc1)NCC1CCCO1 (stereo unspecified)
 : ., 0.65
- COCCCNC(=O)Cn1nc(C)n2c(cc3occc32)c1=O
 : -0.38, 2
